Source: PubChem
Mtb growth = M. tuberculosis H37Rv growth inhibitors, H37Rv strain (AID 1626); M. tuberculosis H37Rv growth inhibition; higher % means a stronger effect; one-dose inhibition, % at 10 µM; IC50 in µM for titrated hits; actives 0.95% (n = 220,000);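 active means confirmed in a dose series; inconclusive means inhibition above 80% but not taken into the dose series; inactive means below 80% or under 30% at every dose of the series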;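 further: bacteria incubated seven days before Alamar blue readout; 0% = bacteria only wells and 100% = bacteria with antibiotic wells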
YopH PTP inh = YopH (Yersinia) phosphatase inhibition; fluorescence Ex485/Em525; inhibition, %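 (about 10 µM by stock and volumes)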; actives 0.16% (n = 140,000); AID 898;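 active means inhibition of 50% or more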;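 further: controls were vehicle for no effect and minimum signal wells for full effect; inactives centre near -20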
Arbovirus anti = arbovirus infection inhibition | arbovirus infection cell-based antiviral screen | inhibition, % at 10 µM | actives 0.37% (n = 200,000);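 active means inhibition from about 30%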;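 further: bluetongue infection of BSR cells; cell survival read as ATP light after 72 h; 0% = infected wells without compound and 100% = uninfected wells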
Mtb bLac sens = beta-lactam sensitization of Mtb H37Rv; inhibition, % at 25 µM; M. tuberculosis H37Rv growth with meropenem, percent inhibition; hits of this screen are not shown here; actives 0.27% (n = 330,000);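 active means about 74% or more and at least 40 points above the plate without the antibiotic, then above 30% in a dose series; inconclusive means first-round hits that could not be retested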;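 further: growth measured after seven days incubation then overnight dye step; 0% = bacteria only wells and 100% = bacteria with antibiotic; twin plates without the antibiotic show which effects depend on it; some results filed as inactive read as strong as hits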
RecA splice inh = blocks M. tuberculosis RecA intein splicing; P9WHJ3; cell-free RecA intein splicing, fluorescence; inhibition, %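 (about 9 µM by stock and volumes)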; actives 0.75% (n = 290,000); in the data active means inhibition above about 30%; inconclusive means no clear call, values can overlap the other calls;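 further: 0% = vehicle wells and 100% = reference inhibitor control wells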
Target sequence (P9WHJ3 whole entry, looked up, canonical isoform): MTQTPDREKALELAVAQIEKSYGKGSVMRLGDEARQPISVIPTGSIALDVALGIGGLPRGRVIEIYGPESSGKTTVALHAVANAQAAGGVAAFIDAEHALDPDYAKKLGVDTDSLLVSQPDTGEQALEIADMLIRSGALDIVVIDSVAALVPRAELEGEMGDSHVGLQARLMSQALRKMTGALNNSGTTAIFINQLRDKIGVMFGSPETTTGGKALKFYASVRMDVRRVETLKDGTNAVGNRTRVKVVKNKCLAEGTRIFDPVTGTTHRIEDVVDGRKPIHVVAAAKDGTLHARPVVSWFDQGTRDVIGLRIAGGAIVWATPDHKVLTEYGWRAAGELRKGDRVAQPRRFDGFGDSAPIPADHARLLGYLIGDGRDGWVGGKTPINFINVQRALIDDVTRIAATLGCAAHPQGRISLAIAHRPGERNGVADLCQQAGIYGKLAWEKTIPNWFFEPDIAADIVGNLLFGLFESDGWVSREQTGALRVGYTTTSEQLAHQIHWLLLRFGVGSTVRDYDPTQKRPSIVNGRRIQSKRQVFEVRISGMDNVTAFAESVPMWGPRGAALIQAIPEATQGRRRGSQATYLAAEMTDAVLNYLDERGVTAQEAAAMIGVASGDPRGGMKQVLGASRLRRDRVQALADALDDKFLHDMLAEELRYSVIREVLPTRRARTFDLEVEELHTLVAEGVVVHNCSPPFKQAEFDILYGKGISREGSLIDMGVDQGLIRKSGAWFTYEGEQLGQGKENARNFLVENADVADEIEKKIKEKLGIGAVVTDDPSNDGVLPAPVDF
Arbovirus anti repeat = second read-out of Arbovirus anti, no call of its own (marks repeat the call); inhibition, %; measured here: 10K subset replicate screen; many hits read low in the repeat;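 first of two repeat runs on a subset; 0% = infected and 100% = uninfected wells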
The depositor's hits bear a star; ? = inconclusive; . = no result given.

SMILES | Mtb growth | YopH PTP inh | Arbovirus anti | Mtb bLac sens | RecA splice inh | others
Nc1c(S(=O)(=O)c2ccccc2)c2nc3ccccc3nc2n1/N=C/c1ccco1 | -2.7% | -32.5 | 10.2 | 11.9 | 8.7 | Arbovirus anti repeat=-5.3
CC(C#N)(Cc1ccccc1)Nc1ccccc1 (centres undefined) | . | . | . | -4.4 | 1.9
Cc1cccc(NC(=S)N=Nc2c(O)n(CN3CCOCC3)c3ccccc23)c1C | 78.3% | -29.7 | -18.4 | 23.3 | 21.9
O=C(/C=C/c1cccc([N+](=O)[O-])c1)OCC1CCCO1 (centres undefined) | . | . | . | 2.8 | -2.4
O=C(CC(c1ccccc1)c1cc(Br)ccc1O)NCc1ccco1 (centres undefined) | 5.5% | -17.4 | -12.5 | -0.2 | 15.8
CCOP(=O)(OCC)C(NS(=O)(=O)c1ccccc1)C(Cl)(Cl)Cl (centres undefined) | -4.1% | . | 8.0 | -3.3 | -6.1
CN1CCN(C(=O)c2cccc(S(=O)(=O)N3CCCCC3)c2)CC1 | -8.1% | -27.4 | 3.7 | 2.9 | -1.0
CCOC(=O)C1CCCN(Cc2cccc(Cl)c2)C1 (centres undefined) | -6.1% | -10.5 | -7.1 | -4.0 | -2.0
CS(=O)(=O)N(CC(=O)N1CCN(c2ccccc2F)CC1)c1cccc(C(F)(F)F)c1 | 1.2% | -48.7 | -0.9 | 2.0 | 1.6
CC(C)(C)NC(=O)NC(=O)COC(=O)c1c(F)cccc1Cl | 5.4% | . | 3.2 | -9.6 | 0.7
O=Cc1cccn1-c1cccnc1 | -10.9% | . | 4.5 | -3.4 | -2.9
Cn1c(=O)c(C(=O)NCc2ccccc2Cl)c(O)c2ccccc21 | . | . | . | -4.9 | -8.5
CCOc1cc(S(=O)(=O)NCc2ccco2)c(OCC)cc1-n1cnnn1 | 12.8% | -13.7 | 8.4 | -2.8 | -3.3
O=C(CN1CCN(c2nc(-c3ccccc3)cs2)CC1)Nc1ccc2c(c1)OCO2 | 12.1% | 4.9 | -7.3 | -5.3 | -2.6
COc1ccc(-n2c(=S)[nH]c3c(sc(=S)n3-c3ccccc3)c2=O)c(OC)c1 | 5.6% | . | 12.1 | 17.1 | -19.8
CCOC(=O)C1=C(C)N(CCCC(=O)O)C(=O)NC1c1ccccc1OS(=O)(=O)c1ccc(C)cc1 (centres undefined) | -13.1% | -34.3 | -4.2 | -2.6 | .
Cc1ccccc1NC(=O)c1ccccc1NC(=O)CCC(=O)O | 0.1% | -20.0 | 6.0 | -1.5 | -0.1
Cc1ccc(C(O)c2nc3ccccc3n2C)cc1 (centres undefined) | . | . | . | -5.8 | 29.7
O=C(COc1cccnc1[N+](=O)[O-])NCc1ccc(F)cc1 | . | . | . | -4.6 | 3.5
O=C1OCC2=C1C(c1ccc(F)cc1)Sc1ccccc1N2 (centres undefined) | -1.9% | -7.5 | -14.8 | -1.9 | -2.1
COc1ccccc1C(=O)NCc1ccc2c(c1)OCO2 | -1.9% | -26.0 | -2.0 | -3.2 | -0.3 | Arbovirus anti repeat=-6.1
CCCCOC(=O)c1nnc(-c2ccccc2)o1 | -8.7% | . | . | -13.3 | 1.5
COc1cc(C(c2c(C)[nH][nH]c2=O)c2c(C)[nH][nH]c2=O)cc(Cl)c1O | . | . | . | 0.1 | 88.1*
O=C(COC(=O)c1ccccc1Nc1ccccc1)c1ccccc1 | -6.1% | -25.6 | -6.0 | -0.3 | 11.9
NC(=O)Cn1nnc(-c2ccc(NC(=O)c3ccc(F)cc3)cc2)n1 | 9.0% | . | -3.2 | 1.4 | -0.6
CCOCCCNS(=O)(=O)c1ccc(OC)c(Cl)c1Cl | 0.7% | -6.4 | -2.1 | -1.4 | 0.4
C=CCn1ccc(=NC=C(C#N)C#N)c2ccccc21 | 0.4% | . | . | 5.1 | 0.0
COC(=O)[C@H](CC(C)C)NC(=O)CCc1nnc(COc2ccccc2)o1 | 1.8% | . | 1.6 | 5.5 | -4.8
COc1ccc(C(=O)OCC(=O)Nc2ccc3[nH]c(=O)[nH]c3c2)c(OC)c1OC | . | . | . | -1.2 | -0.9
O=C(C1CCCN1S(=O)(=O)c1cccc2cccnc12)N1CCc2ccccc21 (centres undefined) | -6.5% | -13.5 | 3.5 | 2.5 | -2.6
O=C1CCCC(O)=C1C(C#Cc1ccccc1)C1=C(O)CCCC1=O | -2.9% | -39.7 | -5.4 | 0.2 | 30.3*
CCC(C(=O)Nc1nc(C)c(C)s1)c1ccccc1 (centres undefined) | . | . | . | 4.1 | 1.5
O=C(Cc1ccc(F)cc1)Nc1ccc(S(=O)(=O)N2CCCCC2)cc1 | -4.9% | . | -1.9 | 6.0 | 2.1
O=C(N/N=C/c1ccccc1)c1ccc2c(c1)OCO2 | . | . | . | 2.8 | 1.3
CC(C)(C(=O)O)c1ccc([C@H](O)CCCN2CCC(C(O)(c3ccccc3)c3ccccc3)CC2)cc1 | . | . | . | -3.4 | 0.4
Cc1c(Cc2ccccc2)sc(NC(=O)c2ccco2)c1C(N)=O | 4.2% | -35.0 | -18.8 | 0.3 | 0.9
C/C(=N\NC(=O)c1ccc(-c2ccccc2)cc1)c1cccc(N)c1 | -2.5% | . | -35.0 | 19.4 | -0.7
COC(=O)c1ccc(CN2CCSC2=N)cc1 | . | . | . | -9.9 | -3.5
N#Cc1ccc(Cn2cc(C(=O)c3ccco3)c3ccccc32)cc1 | -5.5% | -104.0 | -2.7 | 17.8 | 7.4
NC(=O)COC(=O)c1cccc(NS(=O)(=O)/C=C/c2ccccc2)c1 | 0.0% | -10.1 | -1.5 | -3.5 | 2.4

Among those listed so far, 6 have fluorine.
SMILES | Mtb growth | YopH PTP inh | Arbovirus anti | Mtb bLac sens | RecA splice inh | others
CS(=O)(=O)N(CC(=O)N1CCN(c2ccccc2F)CC1)c1cccc(C(F)(F)F)c1 | 1.2% | -48.7 | -0.9 | 2.0 | 1.6
CC(C)(C)NC(=O)NC(=O)COC(=O)c1c(F)cccc1Cl | 5.4% | . | 3.2 | -9.6 | 0.7
O=C(COc1cccnc1[N+](=O)[O-])NCc1ccc(F)cc1 | . | . | . | -4.6 | 3.5
O=C1OCC2=C1C(c1ccc(F)cc1)Sc1ccccc1N2 (centres undefined) | -1.9% | -7.5 | -14.8 | -1.9 | -2.1
NC(=O)Cn1nnc(-c2ccc(NC(=O)c3ccc(F)cc3)cc2)n1 | 9.0% | . | -3.2 | 1.4 | -0.6
O=C(Cc1ccc(F)cc1)Nc1ccc(S(=O)(=O)N2CCCCC2)cc1 | -4.9% | . | -1.9 | 6.0 | 2.1

Continued.
SMILES | Mtb growth | YopH PTP inh | Arbovirus anti | Mtb bLac sens | RecA splice inh | others
CCOc1ccc(NC(=O)C2CCN(S(=O)(=O)c3cccnc3)CC2)cc1 | -8.6% | 1.3 | 3.3 | -0.1 | 0.2
O=C(CCCc1ccccc1)N1CCc2ccccc21 | 7.4% | 3.2 | 8.9 | 4.9 | 3.3
CN(C)S(=O)(=O)N(CC(=O)N1CCN(c2ccccc2)CC1)c1ccccc1 | -5.7% | . | -2.3 | -0.8 | -2.3
COc1ccc(CCNc2c(N)n(Cc3ccccc3)c(=O)[nH]c2=O)cc1OC | -3.5% | 16.1 | 7.4 | -8.5 | -15.3
O=[N+]([O-])c1ccc(N(CC(O)CN2CCCCC2)S(=O)(=O)c2ccccc2)cc1 (centres undefined) | . | . | . | -6.8 | -0.2
CCCc1nc(SCC(=O)NCc2ccco2)c2c(=O)n(C)c(=O)n(C)c2n1 | 4.7% | -11.9 | -20.0 | 2.2 | 1.3
Cc1[nH]c(=O)[nH]c(=O)c1S(=O)(=O)Nc1ccc(Br)cc1F | . | . | . | 1.6 | 0.4
NC(=O)C[C@@H]1NC(=O)[C@H](CCC(=O)O)NC(=O)c2cc([N+](=O)[O-])cc(I)c2OCC[C@@H](C(N)=O)NC1=O | . | -24.9 | -6.5 | 1.6 | -4.6
CCOC(=O)C(=CNNc1ccsc1C(=O)OC)C(=O)OCC | 3.7% | . | . | 6.7 | 5.2
CC(C)Cc1ccc(S(=O)(=O)Nc2ccccn2)cc1 | 2.5% | . | . | -3.3 | 2.3
CCCCCCC(C)n1cc(C(C)=O)c(=O)n(C)c1=O (centres undefined) | -0.4% | -32.0 | 10.6 | -6.7 | -2.6
Cc1cc(C(=O)NNC(=S)NCc2ccccc2)cs1 | 2.9% | -30.2 | 15.2 | 2.1 | 0.4
CC(C)(C)C(=O)NC(=S)NNC(=O)c1ccc(Cl)cc1Cl | ? | . | -19.9 | 76.5 | 0.6
CCC1C/C(=C/c2cccs2)C(=O)/C(=C/c2cccs2)C1 (centres undefined) | 18.1% | -13.6 | 7.1 | 3.9 | 10.9
O=C1NC(=O)N(CCc2ccc(F)cc2)C(=O)/C1=C/c1ccco1 | 8.1% | . | 5.2 | -6.5 | 3.7
O=C(CSc1n[nH]c(-c2ccccn2)n1)Nc1ccccc1F | . | . | . | 89.2 | -0.4
CC1CCCC(C)N1C(=O)Cn1nnc(-c2ccc([N+](=O)[O-])cc2)n1 (centres undefined) | . | . | . | 8.6 | 2.4
O=C(COc1ccc(Cl)cc1Cl)NC1CCSC1=O (centres undefined) | -2.2% | -37.9 | -4.2 | -0.4 | 1.4
CCC(=O)Nc1cccc(-c2nnc(SCC(=O)c3ccccc3)n2C)c1 | 7.8% | -25.8 | 7.6 | 10.1 | 7.0 | Arbovirus anti repeat=-2.1
Cc1ccc(NC(=O)CCN2CCCCC2)cc1 | . | . | . | 1.5 | 3.1

Pulled by structure from above (2):
SMILES | Mtb growth | YopH PTP inh | Arbovirus anti | Mtb bLac sens | RecA splice inh | others
O=C1NC(=O)N(CCc2ccc(F)cc2)C(=O)/C1=C/c1ccco1 | 8.1% | . | 5.2 | -6.5 | 3.7
Cc1ccc(NC(=O)CCN2CCCCC2)cc1 | . | . | . | 1.5 | 3.1

Later entries.
SMILES | Mtb growth | YopH PTP inh | Arbovirus anti | Mtb bLac sens | RecA splice inh | others
COc1ccc(C(=O)Nn2c(C3CCC3)nc3ccccc3c2=O)c(OC)c1 | -7.4% | -2.4 | -4.5 | -8.0 | 3.3
Cc1ccccc1CN1CCN(C2CCC2)CC1CCO (centres undefined) | . | . | . | 3.7 | 0.4
CCc1ccc(OCC(=O)Nc2ccc(N3CCN(C(=O)c4ccccc4)CC3)cc2)cc1 | . | . | . | 0.9 | -2.9
COc1ccccc1NS(=O)(=O)c1cc2c3c(c1)CCN3C(=O)CC2 | . | . | . | -0.7 | 0.0
COc1ccc(OCC(=O)Nc2cc(-c3nn4c(C)nnc4s3)ccc2C)cc1 | -3.4% | -31.8 | -1.0 | -0.3 | -0.9 | Arbovirus anti repeat=0.8
CN1c2ccccc2-c2nc3ccccc3n2C1c1ccncc1 (centres undefined) | -3.2% | -3.6 | -14.0 | -0.8 | -4.5
COc1cc(C)nc(NS(=O)(=O)c2ccc(C)cc2)n1 | 11.7% | -16.0 | 6.1 | 4.2 | 0.7
Cc1ccc(S(=O)(=O)N(C)c2ccccc2C(=O)NC2CCCC2)cc1 | -9.1% | -25.9 | 3.2 | 0.4 | 0.6
S=c1[nH]c2ccccc2[nH]1 | -2.7% | . | 10.8 | -0.9 | -4.1
CN(Cc1ccccc1)S(=O)(=O)c1cccs1 | 7.2% | 9.0 | 7.7 | -3.8 | 0.3
COc1ccccc1N(CC(=O)NCCSCc1ccccc1)S(=O)(=O)c1ccc(C)cc1 | . | . | . | -3.8 | -0.3
CN(Cc1ccc(OC(F)F)cc1)C(=O)c1ccc2nccnc2c1 | 7.3% | -32.9 | 0.5 | -2.8 | 7.9
COc1cc2c3c(c1OC)C1(C=CC(=O)C=C1)CC3N(C(=O)c1ccccc1)CC2 (centres undefined) | -4.7% | -12.6 | 3.3 | -13.8 | 3.2
Cc1ccc(S(=O)(=O)N2CCC(C)CC2)cc1C(=O)NCCN1CCOCC1 | . | . | . | -14.9 | 1.4
CC1CCN(C(=O)CSc2nnc(-c3cccs3)o2)CC1 | . | . | . | -1.1 | -2.5
Cc1cccc(NC(=O)CCc2ccc(S(=O)(=O)NC3CCCCC3)cc2)c1 | 4.2% | -1.9 | -6.6 | -8.7 | 0.6
CCN1CCN(c2nc(Nc3ccccc3F)nc(N)c2[N+](=O)[O-])CC1 | -6.2% | . | . | -1.0 | -2.7
Cc1cc(Cl)cc(Br)c1OCCNCC(C)O (centres undefined) | -20.4% | -28.5 | -12.4 | -3.5 | -1.7
COc1ccc(C(=O)NC2CCCc3c2cnn3-c2cccc(C)c2C)o1 (centres undefined) | . | . | . | 5.8 | 0.7
CC(=O)NC(Cc1cccc(C)c1)C(=O)NC1CCN(C(=O)c2ccc([N+](=O)[O-])cc2)CC1 (centres undefined) | 0.3% | -14.2 | -4.2 | -2.6 | -0.5
O=C(NCc1ccccc1C(F)(F)F)C1CCC(=O)N(CCCc2ccccc2)C1 (centres undefined) | . | . | . | -13.2 | 1.7

These rows are one share of the data; the hit share may differ from the screen's.
